HSV augment: increases HSV replication in cells; HSV replication augmentation in cells, fold increase; maximum fold increase; hit rate 0.005% among 220,000; AID 1956;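 active = peak rise of 1.5-fold or more in the series; inconclusive = self-fluorescent or not available for retest; tested in PC3 cells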;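 note: first round at 10 µM; read as green reporter fluorescence; hits show the peak of a series up to 25 µM; 1 = signal of infected wells without compound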
PKD1 inh: PKD1 (human) kinase inhibition. inhibition, %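 (about 10 µM by stock and volumes)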. hit rate 0.056% among 200,000. Q15139. AID 797. PKD1 kinase fluorescence polarization assay;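 active = inhibition of 50% or more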;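 note: controls were vehicle for no effect and a reference inhibitor for full effect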
GALR2 agonist: GALR2 (human) receptor agonism; O43603; GALR2-expressing cells, agonist activation read-out; activation, %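 (tested at 5 µM)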; hit rate 0.48% among 140,000;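 active = above mean plus 3 SD of all compounds, about 5% in these data, not always enough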;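 note: 0% = vehicle buffer wells and 100% = reference agonist at full effect; tested in CHO reporter cells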
Target sequence (O43603 whole entry, looked up): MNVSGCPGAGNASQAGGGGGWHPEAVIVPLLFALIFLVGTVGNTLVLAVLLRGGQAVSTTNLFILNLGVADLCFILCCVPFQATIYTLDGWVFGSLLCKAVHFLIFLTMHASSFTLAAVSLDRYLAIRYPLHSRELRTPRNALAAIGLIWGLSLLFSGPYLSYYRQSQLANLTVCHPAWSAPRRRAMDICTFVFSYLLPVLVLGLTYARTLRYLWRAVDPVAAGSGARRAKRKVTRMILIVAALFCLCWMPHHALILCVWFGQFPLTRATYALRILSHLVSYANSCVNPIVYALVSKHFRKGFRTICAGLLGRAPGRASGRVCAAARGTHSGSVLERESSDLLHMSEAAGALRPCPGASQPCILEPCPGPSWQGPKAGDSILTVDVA
RGS16-Gao HTS: modulates binding between human RGS16 and Galphao. binding response (% of control), % at 10 µM. hit rate 0.38% among 220,000. bead-based flow cytometry RGS16-Galphao binding, fluorescence; actives lie on both sides;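 active = below 25% or above 175%, edge rows of some plates excepted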;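 note: Galphao activated by GDP with aluminum fluoride before binding; 100% = wells without compound and 0% = beads without RGS; some results beyond the cut were filed as inactive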
Target sequence (O15492 whole entry, looked up): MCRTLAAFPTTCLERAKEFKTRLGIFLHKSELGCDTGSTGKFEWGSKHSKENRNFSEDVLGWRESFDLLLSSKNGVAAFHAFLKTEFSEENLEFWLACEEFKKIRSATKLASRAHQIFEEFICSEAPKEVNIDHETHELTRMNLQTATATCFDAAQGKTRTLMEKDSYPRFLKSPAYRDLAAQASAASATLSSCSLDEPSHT
Target sequence (P09471 whole entry, looked up): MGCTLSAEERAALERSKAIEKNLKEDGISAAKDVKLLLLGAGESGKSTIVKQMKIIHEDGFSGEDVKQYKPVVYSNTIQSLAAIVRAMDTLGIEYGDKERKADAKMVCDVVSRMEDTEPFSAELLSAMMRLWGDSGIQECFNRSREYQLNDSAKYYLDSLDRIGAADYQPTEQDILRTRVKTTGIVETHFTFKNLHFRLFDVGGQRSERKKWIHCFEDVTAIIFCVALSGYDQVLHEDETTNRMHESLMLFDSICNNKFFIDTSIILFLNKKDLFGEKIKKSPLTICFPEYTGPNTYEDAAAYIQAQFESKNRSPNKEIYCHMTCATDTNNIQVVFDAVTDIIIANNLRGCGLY
INS promoter inh: TRM-6 insulin promoter activity inhibition; hit rate 0.9% among 130,000; inhibition, % at 2 µM; TRM-6 cells (human fetal islet line), insulin promoter-eGFP reporter, imaging; reporter expression induced with tamoxifen; AID 1273;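 active = inhibition above the mean plus 3 SD, with well images judged a real hit on visual review, cut at about 60% in these data, passing the limit was not always enough; inconclusive = inhibition over the cutoff but images rejected on review; inactive = inhibition not above the cutoff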
INS promoter inh cell count: recorded beside INS promoter inh, whose call it bears; normalized cell count, %; measured here: cell count, toxicity; reference of the scale not given here;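 cells exposed to compound for 48 h; stained nuclei by imaging scaled within each plate; lower means fewer cells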
HSV augment primary fold: second read-out of HSV augment, no call of its own (marks repeat the call); fold increase; compound at 10 µM; measured here: primary screen fold increase 10 uM; tested in PC3 cells;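 GFP signal in the first replicate; 1 = infected wells without compound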
Active calls of the source: *; i = inactive; ? = inconclusive; / = no result given; [ ] = remark or other dose. Rows were taken by chance. About 1.3% of those tested had a hit in this group.

SMILES | HSV augment | HSV augment primary fold | PKD1 inh | GALR2 agonist | RGS16-Gao HTS | INS promoter inh | INS promoter inh cell count
O=C(CSc1nnc(-c2cnccn2)n1Cc1ccco1)c1ccc(Cl)c(Cl)c1 | i | 0.88 | -12.9 | -0.3 | 103.5 | 50.0 | 94.5
O=C(CSc1nncs1)Nc1ccc2c(c1)OCCO2 | i | 1 | -6.1 | -1.1 | 113.4 | 15.2 | 104.6
Cc1c(C(=O)NCCSCc2cccc(C(F)(F)F)c2)cnn1-c1ccc(F)cc1 | i | 0.97 | / | / | 103.5 | / | /
COc1ccc(NC(=O)Oc2cc(C)ccc2C(C)C)cc1 | i | 1.33 | / | / | 100.6 | / | /
CC(C)(C)NC(=O)C(c1ccncc1)N(C(=O)Cn1nnc(-c2cccs2)n1)C1CCCCC1 (configuration not stated) | i | 0.97 | -11.1 | -0.9 | 94.3 | 23.7 | 102.9
CC(=O)C1C(c2ccc(OC(F)F)cc2)NC(=O)NC1(O)C(F)(F)F (configuration not stated) | i | 0.94 | -3.8 | -3.3 | 97.2 | / | /
CC(C)c1nccn1S(=O)(=O)c1cc([N+](=O)[O-])ccc1Cl | i | 0.9 | 2.2 | 0.1 | 105.8 | / | /
CCCCc1nc2n[nH]c(N)c2c2c1CCC2 | i | 1.04 | 3.9 | -0.2 | 95.8 | / | /
Cc1ccc(C)c(Sc2ccc(NC(=O)CCl)cc2)c1 | i | 1.12 | -5.4 | -2.0 | 299.1*[activator] | 40.7 | 96.7
Cc1ccc(NC(=O)NC(=O)N(C(C)C)S(=O)(=O)c2ccc(C)cc2)cc1 | i | 0.9 | -6.2 | / | 106.9 | 16.7 | 190.1
O=C(c1cc(-c2ccc(F)cc2)on1)N1CCCC1 | / | / | -4.0 | -1.5 | 97.4 | / | /
Cc1ccccc1NC(=O)C(=O)NC(C)CCc1ccccc1 (configuration not stated) | i | 1 | -5.9 | -0.1 | 105.8 | 5.4 | 161.4
CCc1ccc(CN2CC(C(=O)O)CC2=O)cc1 (configuration not stated) | i | 1 | -4.1 | -1.1 | 102.3 | -21.4 | 84.3
O=C1COc2ccc(C(=O)C[n+]3cccc(O)c3)cc2N1 | i | 1.1 | / | / | 102.7 | / | /
O=C(COC(=O)c1cncc(Br)c1)NC1CCCCCC1 | i | 0.94 | 6.9 | / | 99.3 | / | /
CC(Cc1cccs1)NC(=S)Nc1ccc(Cl)c(Cl)c1 (configuration not stated) | i | 0.97 | 1.3 | -1.2 | 213.4 | -14.3 | 101.5
O=C(NCC1CCCO1)c1cccc(NC(=O)c2cccs2)c1 (configuration not stated) | i | 0.95 | -6.0 | / | 100.1 | / | /
Cc1c(Cl)c(C(F)F)nn1CC(=O)NC1C(=O)N2C(C(=O)O)=C(CSc3nnnn3C)CSC12 (configuration not stated) | i | 1.11 | 1.2 | / | 103.2 | / | /
CC(=O)c1ccc(NC(=S)N(Cc2ccccc2)C(C)C2CC2)cc1 (configuration not stated) | i | 0.97 | 4.7 | / | 104.5 | / | /
O=C(NCc1ccccn1)c1cn(-c2ccccc2)nc1-c1ccc(Cl)cc1 | i | 1.08 | -11.3 | -1.5 | 120.6 | / | /
CCC(CC)C(=O)c1c[nH]c(C(=O)NCc2ccccn2)c1 | i | 0.86 | 2.3 | / | 109.9 | 33.3 | 186.6
O=C1N/C(=C\c2ccc(O)cc2)C(O)=C1C=NCc1ccccc1 | i | 0.77 | 1.6 | -0.4 | 98.2 | -18.8 | 124.9
COc1cc2c(cc1NC(=O)COC(=O)[C@@H](NC(=O)c1ccccc1)C(C)C)oc1ccccc12 | i | 0.96 | -11.5 | -0.7 | 95.5 | / | /
O=C(NCCCN1CCCC1)c1ccc(Cn2c(=S)[nH]c3ccc(Br)cc3c2=O)cc1 | i | 0.91 | -9.3 | / | 103.6 | / | /
Cc1ccc(C(=O)NNC(=O)c2ccc(C)cc2)cc1 | i | 0.87 | -11.3 | / | 111.3 | -72.7 | 132.6

Full records, quoted from the list. Order of screens: HSV augment, HSV augment primary fold, PKD1 inh, GALR2 agonist, RGS16-Gao HTS, INS promoter inh, INS promoter inh cell count
`CC(C)c1nccn1S(=O)(=O)c1cc([N+](=O)[O-])ccc1Cl` in the list: i, 0.9, 2.2, 0.1, 105.8, /, /
`O=C(NCc1ccccn1)c1cn(-c2ccccc2)nc1-c1ccc(Cl)cc1` in the list: i, 1.08, -11.3, -1.5, 120.6, /, /
`CCCCc1nc2n[nH]c(N)c2c2c1CCC2` in the list: i, 1.04, 3.9, -0.2, 95.8, /, /

Returning to the listing; the three compounds before the break are reprinted first.
SMILES | HSV augment | HSV augment primary fold | PKD1 inh | GALR2 agonist | RGS16-Gao HTS | INS promoter inh | INS promoter inh cell count
COc1cc2c(cc1NC(=O)COC(=O)[C@@H](NC(=O)c1ccccc1)C(C)C)oc1ccccc12 | i | 0.96 | -11.5 | -0.7 | 95.5 | / | /
O=C(NCCCN1CCCC1)c1ccc(Cn2c(=S)[nH]c3ccc(Br)cc3c2=O)cc1 | i | 0.91 | -9.3 | / | 103.6 | / | /
Cc1ccc(C(=O)NNC(=O)c2ccc(C)cc2)cc1 | i | 0.87 | -11.3 | / | 111.3 | -72.7 | 132.6
N=C1C(c2ccccc2)=C(O)CN1NC(=O)c1ccccc1 | i | 1.01 | 2.1 | / | 90.4 | -87.5 | 86.2
Cc1ccc(-c2noc(CN(C(=O)CCCN3C(=O)c4ccccc4C3=O)C(C)C)n2)cc1 | i | 1 | -1.9 | 0.8 | / | -8.3 | 114.9
Cc1ccc(S(=O)(=O)n2[nH]c(=O)cc2NC(=O)c2cccs2)cc1 | i | 0.91 | 0.3 | / | 101.5 | / | /
O=C(NC1CCCCC1)c1ccccc1NC(=S)NC(=O)C1CCC1 | i | 0.93 | 5.4 | -1.7 | 102.1 | -75.0 | 49.4
O=C(COc1ccccc1Cl)c1ccc[nH]1 | i | 0.97 | 2.7 | / | 94.7 | -25.9 | 129.2
C=CCNC(=S)N1CCN(c2ccccc2Cl)CC1 | i | 0.93 | / | / | 97.0 | / | /
Cc1csc(NS(=O)(=O)c2cccc([N+](=O)[O-])c2)n1 | i | 0.99 | -4.1 | / | 99.6 | 7.1 | 76.0
CCOc1ccc(N2C(=O)CC(N(CCc3ccc(OC)cc3)C(=O)c3cccc(F)c3)C2=O)cc1 (configuration not stated) | i | 1.02 | 7.1 | 0.5 | 92.5 | -66.7 | 89.0
Cc1ccc(NS(=O)(=O)c2cc(C(=O)Nc3cccc([N+](=O)[O-])c3)ccc2C)cc1 | i | 0.79 | -2.0 | -2.1 | 98.3 | 3.3 | 98.6
CCN1C(=O)C2(C(C(=O)c3ccc(C)o3)=C(O)C(=O)N2CCCN2CCOCC2)c2ccccc21 (configuration not stated) | i | 1.15 | -10.2 | -0.3 | 100.0 | / | /
C[C@@H](CO)NC(=O)c1ccc2c3n(nc2c1)-c1ccc(Cl)cc1CO3 | i | 0.82 | / | / | 106.2 | / | /
CCCCn1c(N)c(NCCC(C)C)c(=O)[nH]c1=O | i | 1.01 | -19.2 | -0.5 | 77.7 | 82.1* | 83.7*
C/C(=N\Nc1nc(N)cc(Cl)n1)c1ccc(Cl)c(Cl)c1 | i | 0.81 | 0.0 | / | 98.5 | 14.3 | 105.9
CC(C)CC(=O)N[C@H](C(=O)N[C@H](C(=O)N[C@@H](CC(C)C)[C@@H](O)CC(=O)N[C@@H](C)C(=O)N[C@@H](CC(C)C)[C@@H](O)CC(=O)O)C(C)C)C(C)C | i | 0.71 | 14.7 | -2.0 | 106.2 | 42.9 | 78.4
Cn1c(=O)c2cc(S(=O)(=O)NC(C(=O)NC3CCCCC3)c3ccccc3)ccc2n(C)c1=O (configuration not stated) | i | 0.79 | -5.3 | -1.2 | 100.1 | / | /
Cc1ccc(C(=O)NNC(=O)c2cc(OCC(F)(F)F)ccc2OCC(F)(F)F)cc1 | i | 0.91 | -3.3 | 0.0 | 102.8 | 2.2 | 118.4
CCCC(=O)NC(c1ccco1)c1cc(Cl)c2cccnc2c1O (configuration not stated) | i | 0.94 | 5.8 | -1.0 | 95.7 | 16.7 | 72.7
CCN(CC)S(=O)(=O)c1ccc(C(=O)NCCN2C(=O)S/C(=C\c3cccnc3)C2=O)cc1 | i | 0.84 | 1.8 | / | 95.4 | / | /
COC(=O)/C=C/c1ccc(-n2cncn2)cc1 | i | 1.04 | -3.3 | / | 91.9 | / | /
COc1cc(OC)cc(C(=O)N2CCN(c3ncccn3)CC2)c1 | i | 0.8 | -1.9 | -0.4 | 93.2 | / | /
Cc1ccc(CNC(=O)CN2CCN(Cc3ccc(Cl)cc3)C2=O)cc1 | i | 0.69 | -2.5 | -1.3 | 98.1 | 21.6 | 77.5
Cc1ccccc1Cn1nnc(-c2cccc(C(=O)O)c2)n1 | i | 0.96 | 1.1 | 0.0 | 101.3 | 25.0 | 201.5
COC(=O)c1ccc(-c2ccc(/C=N/N3C(=O)C4C5C=CC(C6CC56)C4C3=O)o2)cc1 (configuration not stated) | i | 0.95 | -6.0 | -0.2 | 105.6 | -11.1 | 110.2
CO/N=C(\c1nonc1N)N1CCN(c2ccc(Cl)cc2[N+](=O)[O-])CC1 | / | / | -6.3 | -2.0 | 100.4 | -8.0 | 147.5
CC(=O)n1cc(C2C(=O)CCCC2=O)c2ccccc21 | i | 1.05 | -13.2 | -2.2 | 100.7 | / | /
Continued.
SMILES | HSV augment | HSV augment primary fold | PKD1 inh | GALR2 agonist | RGS16-Gao HTS | INS promoter inh | INS promoter inh cell count
COc1ccc(NC(=O)c2ccccc2NC(=O)NC2CCCCC2)cc1 | i | 0.88 | -6.4 | -1.4 | 101.8 | -5.1 | 108.6
COc1cccc(-n2nc(-c3ccnn3-c3ccc(F)cc3)c(=O)n(C)c2=O)c1 | i | 0.84 | -0.7 | 3.5 | 101.4 | 4.2 | 68.3
Cn1c(C(=O)NC2CCCCCC2)cc2c(=O)n(C)c3ccccc3c21 | i | 1.07 | 15.7 | -0.5 | 99.8 | / | /
C=CCNC(=O)C1CCN(c2ccc(S(=O)(=O)N3CCOCC3)cc2[N+](=O)[O-])CC1 | i | 1.04 | -4.8 | / | 101.6 | / | /
O=C(CCl)Nc1cccn2ncnc12 | i | 0.963 | -1.3 | -2.1 | 101.6 | 3.5 | 120.1
CC(C)CNC(CC(=O)Nc1cccc([N+](=O)[O-])c1)C(=O)O (configuration not stated) | i | 0.92 | -7.2 | -1.9 | 110.3 | 3.5 | 75.3
COc1ccc(NC(=S)NC(NC(=O)c2cccc(C)c2)C(Cl)(Cl)Cl)c([N+](=O)[O-])c1 (configuration not stated) | i | 0.71 | -3.1 | -1.6 | 105.0 | 51.4 | 94.2
CN(Cc1ccncn1)C(=O)CC1C(=O)NCCN1Cc1cccc(Oc2ccccc2)c1 (configuration not stated) | i | 0.92 | -7.3 | / | 110.2 | -100.0 | 91.6
O=C(O[C@@H]1Cc2c(O)cc(O)cc2O[C@@H]1c1cc(O)c(O)c(O)c1)c1cc(O)c(O)c(O)c1 | i | 1.06 | / | / | 55.6 | / | /
Cc1cc(Nc2c(C)n(C)n(-c3ccccc3)c2=O)n2c(nc3cc(F)c(F)cc32)c1C#N | i | 1.1 | / | / | 98.2 | / | /
NC(=O)c1ccc(NC(=O)c2cnc3ccccc3n2)cc1 | i | 1.01 | / | / | 107.3 | / | /
Nc1nccc(/C=C/c2ccc(Cl)cc2)n1 | i | 0.88 | / | / | 93.5 | / | /
O=C1NCC(c2ccccc2)C1C(=O)N/N=C\c1ccc(-c2ccc(Cl)c(Cl)c2)o1 (configuration not stated) | ? | / | -5.3 | -0.8 | 111.8 | 21.7 | 124.4
CC1(C)SC(=S)N(NC(=O)Nc2ccccc2)C1N(O)C(=O)Nc1ccccc1 (configuration not stated) | i | 0.93 | 1.0 | -4.4 | 98.8 | / | /
O=C(NCCc1ccccc1)/C(=C\c1ccc([N+](=O)[O-])cc1)NC(=O)c1ccccc1 | / | / | -8.8 | -1.6 | 100.8 | -67.7 | 129.1
Cc1nn(C)cc1CNC(=O)c1cnn2c(C(F)F)cc(C3CC3)nc12 | i | 0.8 | -3.9 | -3.1 | 84.1 | -22.7 | 122.6
O=C(ON=C1CCSCC1)c1ccccc1 | i | 0.76 | -12.0 | -3.1 | / | -20.0 | 106.3
COc1nc(NC(C)=O)nc(C)c1Br | i | 0.62 | -1.2 | -2.6 | 101.8 | 14.3 | 113.8
Cc1ccc(-c2cc(=O)c3ccccc3[nH]2)cc1 | i | 0.83 | -5.9 | -1.9 | 66.8 | 28.6 | 84.6

Bioassay records as filed in PubChem.
